Screening data from PubChem.
Menin MLL FP FL = qHTS Assay for Inhibitors Targeting the Menin-MLL Interaction in MLL Related Leukemias: Competition With Fluorescein Labeled MLL-derived Peptide; Fluorescence polarization, fluorescein-MLL peptide displacement from menin; FP activity change, % at 61.4 µM; 290,000 tested, under 10 active; inconclusive = falling polarisation curve, or a change in total fluorescence; inactive = total fluorescence flat and polarisation flat or rising; no compound was filed as active; the % refers to the polarisation; negative = inhibition;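 note: % of control where 0% means no effect; inhibitors lower the polarisation; unlabelled MLL peptide was the positive control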
TRPV1 potentiator = HTS Assay for Compounds that Act as Potentiators of the Vanilloid Receptor 1. TRPV1-expressing cells, Fluo-8 calcium influx, capsaicin EC20 potentiation; host cell line not named in the record; control for the full effect not named in the record. potentiation, % at 8.33 µM. 320,000 tested, 0.02% active; active means potentiation above 80%; inconclusive means 30% to 80%; inactive means below 30%; note: 0% is about no effect
Target sequence (Q8NER1 whole entry, looked up): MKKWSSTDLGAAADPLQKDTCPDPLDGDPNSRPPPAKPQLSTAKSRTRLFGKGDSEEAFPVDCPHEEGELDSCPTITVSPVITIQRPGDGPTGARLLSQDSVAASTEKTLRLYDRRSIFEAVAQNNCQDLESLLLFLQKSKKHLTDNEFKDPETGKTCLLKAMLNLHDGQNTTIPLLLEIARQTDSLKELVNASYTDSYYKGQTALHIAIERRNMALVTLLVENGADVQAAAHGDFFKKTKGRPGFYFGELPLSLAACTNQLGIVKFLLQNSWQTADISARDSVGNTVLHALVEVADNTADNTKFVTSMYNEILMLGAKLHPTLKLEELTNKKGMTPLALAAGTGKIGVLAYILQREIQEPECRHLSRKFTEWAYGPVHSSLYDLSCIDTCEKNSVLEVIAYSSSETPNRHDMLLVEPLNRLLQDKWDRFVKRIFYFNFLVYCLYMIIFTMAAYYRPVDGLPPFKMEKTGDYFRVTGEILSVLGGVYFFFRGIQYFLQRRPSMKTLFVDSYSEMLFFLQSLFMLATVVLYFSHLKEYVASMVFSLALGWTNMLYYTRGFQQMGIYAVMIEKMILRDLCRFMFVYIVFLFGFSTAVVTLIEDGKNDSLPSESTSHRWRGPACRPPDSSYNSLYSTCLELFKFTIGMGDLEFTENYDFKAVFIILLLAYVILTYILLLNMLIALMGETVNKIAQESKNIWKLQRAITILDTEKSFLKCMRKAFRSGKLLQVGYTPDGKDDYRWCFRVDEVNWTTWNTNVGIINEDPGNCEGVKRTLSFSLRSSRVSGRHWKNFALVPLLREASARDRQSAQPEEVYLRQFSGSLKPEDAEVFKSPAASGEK
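Cells expressing TRPV1 were dye-loaded with Fluo-8 and read kinetically: 10 s baseline, 3 min after compound (agonist portion), then 2 min after EC20 capsaicin (allosteric enhancer portion). Calcium-bound dye fluorescence at 480/520 nm.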
ClpP mod = qHTS Assay for Activators of ClpP. purified B. subtilis ClpP, FRET peptide cleavage, 20 min. Potency, µM (doses to about 57.5 µM), without a hit: at the top dose activity change, negative = active. 340,000 tested, 1.9% active; active = well fitted falling curve with a large enough effect; inconclusive = small, poorly fitted or top-dose-only effect; inactive = no such curve, though single readings can be large or run the other way; note: potency is the fitted concentration of half-maximal effect; the source files actives as falling curves though it sought activators and does not explain the sign; nearly all actives have a fitted effect of over 65% in size; many hits overshoot -100%
Target sequence (P80244 whole entry, looked up): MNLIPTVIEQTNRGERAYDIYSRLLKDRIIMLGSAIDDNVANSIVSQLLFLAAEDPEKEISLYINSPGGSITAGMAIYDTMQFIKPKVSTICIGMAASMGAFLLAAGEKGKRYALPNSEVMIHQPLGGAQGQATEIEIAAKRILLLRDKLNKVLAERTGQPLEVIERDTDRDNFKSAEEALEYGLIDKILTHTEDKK
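FRET quenching reversal measured ClpP activation: 10 microg/mL B. subtilis ClpP at pH 8 with the FRET-FV decapeptide, read at 430 nm after 320 nm excitation. The 20-min minus 0-min signal was scaled between DMSO/no-enzyme wells and ADEP (5.8 microM final).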
TRPML1 agonist = qHTS for Agonists of the Human Mucolipin Transient Receptor Potential 1 (TRPML1); activation, % (concentration not given with the values); Mucolipin-1 (Homo sapiens), Q9GZU1; 410,000 tested, 0.12% active; AID 624414, 2012; TRPML1-expressing cells, Ca2+ dye fluorescence, FDSS; host cell line not named in the record; reference of the full effect not given here; in the data active = activation above about 50%; inconclusive = about 30% to 50%; inactive = below about 30%; note: 0% is about no effect; the text of the record puts the active cut at 80%
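TRPML1-DL cells, Tet-induced overnight (~16 h, 37 degrees C), loaded 45-90 min at room temperature with Ca8 no-wash calcium dye plus quencher. FDSS fluorescence: 10 s baseline, compound pin-transfer, 110 s agonist read, then EC80 54-4 (4uM final) and 110 s antagonist read.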
TRPML1 blocker = qHTS for Inhibitors of the Human Mucolipin Transient Receptor Potential 1 (TRPML1). 390,000 tested, 0.02% active. activity change, negative = inhibition, % (concentration not given with the values). Mucolipin-1 (Homo sapiens), Q9GZU1. TRPML1-inducible cells, Ca2+ dye fluorescence, FDSS; active compounds read low; inhibition of EC80 agonist-evoked calcium signal. AID 624415, 2012; in the data active means activity change below about -50%; inconclusive means about -30% to -50%; inactive means above about -30%;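 note: stimulus is agonist 54-4 at its EC80 concentration; % is set by controls: 0 for no effect and ±100 for the full control effect; the text of the record puts the active cut at -80%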
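TRPML1-DL cells, Tet-induced overnight (~16 h, 37 °C) at 1,500 cells/well, were loaded with Ca8 no-wash dye plus quencher for 45-90 min at room temperature. Compounds were pinned during FDSS kinetic reading; agonist 54-4 at EC80 (4 uM final) then added.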
Sfp inh = qHTS Assay for Inhibitors of Bacillus subtilis Sfp phosphopantetheinyl transferase (PPTase) | Biochemical Sfp PPTase activity, qHTS | 4'-phosphopantetheinyl transferase ffp (Bacillus subtilis), Q9F4F7 | Potency, µM, inactives show max response, negative = inhibition, usual class: inhibitors | 310,000 tested, 3.5% active | AID 1490, 2009; active = well fitted inhibition curve with a large enough effect; inconclusive = small, poorly fitted or top-dose-only effect, or another doubt; inactive = no such curve, though single readings can be large or run the other way;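 note: the enzyme is Sfp with the accession as filed and its product quenches rhodamine fluorescence; potency is the fitted concentration of half-maximal effect; 0% = enzyme reaction without inhibitor and -100% = no enzyme wells; top concentration of the series not given in the record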
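After 15 min at room temperature with compound, 15 nM Sfp received 5 uM rhodamine-CoA plus 12.5 uM BHQ-2-ybbR (50 mM Hepes pH 7.6, 10 mM MgCl2). Rate came from the fluorescence difference over 30 min, ex 525/em 598 nm.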
PINK1 expr mod = A Quantitative High throughput Screen to Identify Chemical Modulators of PINK1 Expression. PINK1 immunofluorescence, high-content cytometry, 24 h. Potency, µM (highest dose often 76.6 µM), for inactives: top-dose activation (PINK1 increase), actives largely listed as activators. 410,000 tested, 0.2% active; active = well fitted activation curve with a large enough effect; inconclusive = small, poorly fitted or top-dose-only effect; inactive = flat fitted curve, though single readings scatter; cell line not stated here;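 note: potency is the fitted concentration of half-maximal effect; % of control where 0% means no effect; nearly all actives have a fitted effect of over 65% in size; a mitochondrial uncoupler was the plate control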
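Stable cell line, 250 cells/well, 12 h attachment; compounds pinned at 5 concentrations, 24 h; CCCP control. Fixed with nuclear dye, primary antibodies 12 h at 10 degrees C, secondary plus cell stain; laser-scanning cytometer read.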
* marks the source's active call; other numbers are inactive results; ? = inconclusive; . = no result given; & = joins results of further samples; [ ] = remark or other dose.

#	Structure	Menin MLL FP FL	TRPV1 potentiator	ClpP mod	TRPML1 agonist	TRPML1 blocker	Sfp inh	PINK1 expr mod
1	Cc1ccc(S(=O)(=O)NC(C)(C)CSc2nncn2C)cc1	0.5	8.5	-0.9%	-0.8	-7.3	0.6%	0.6%[38.3 µM]
2	Cc1ccc(CN2C(=O)N/C(=C\c3cccn3-c3cccc(C(=O)O)c3)C2=O)cc1	19.7	0.5	.	2.5	13.5	50.1µM*	-0.2%
3	O=C(CCCSc1ccccc1)Nc1ccc(Cl)c(S(=O)(=O)N2CCOCC2)c1	.	9.2	0.3%	1.5	10.1	.	3.7%
4	CCOC(=O)C1CCN(S(=O)(=O)c2csc(C(N)=O)c2)CC1	.	?	0.6%&-14.4%	1.1&-0.7	7.6&-11.4	9.8%	0.4%&1.4%
5	CC(C)CC(C)NNC(=O)c1cc2ccccc2[nH]1 (stereo not drawn)	-1.5	-23.6	-13.4%	0.6	23.9	2.6%	0.7%
6	CN(C(=O)c1ccc(NC(=O)C2CCCN(C(=O)OC(C)(C)C)C2)cc1)C1CCCC1 (stereo not drawn)	.	.	-0.5%	0.5	-7.2	.	1.1%
7	O=C(NCC1CCOCC1)c1cc(COc2cccc(C(F)(F)F)c2)on1	-1.5	-15.4	0.4%	-0.2	11.4	-4.7%	-1.4%
8	CCn1c(COc2cccc(C)c2)nnc1SCC(=O)N1CCCC1	-0.4	10.7	3.6%	-0.8	-5.6	-7.0%	5.8%[38.3 µM]
9	C/C(CC(=O)NC12CC3CC(CC(C3)C1)C2)=N\NC(=O)c1cnccn1	-5.8	-1.8	.	0.5	-3.8	50.1µM*	1.2%
10	COc1ccc(-n2c(SCC(=O)NCC3CCCO3)nc3n[nH]c(C)c3c2=N)cc1 (stereo not drawn)	1.4	-5.0	-2.5%	-0.2	-11.3	12.9%	-2.1%

Complete entries as entered above. Values in the order: Menin MLL FP FL | TRPV1 potentiator | ClpP mod | TRPML1 agonist | TRPML1 blocker | Sfp inh | PINK1 expr mod
`CC(C)CC(C)NNC(=O)c1cc2ccccc2[nH]1` (stereo not drawn) is entered as -1.5 | -23.6 | -13.4% | 0.6 | 23.9 | 2.6% | 0.7%
`CCOC(=O)C1CCN(S(=O)(=O)c2csc(C(N)=O)c2)CC1` is entered as . | ? | 0.6%&-14.4% | 1.1&-0.7 | 7.6&-11.4 | 9.8% | 0.4%&1.4%

Next part.
#	Structure	Menin MLL FP FL	TRPV1 potentiator	ClpP mod	TRPML1 agonist	TRPML1 blocker	Sfp inh	PINK1 expr mod
11	C[C@@H]1CN([C@@H](C)CO)C(=O)CCCn2cc(nn2)CO[C@H]1CN(C)C(=O)OCc1ccccc1	.	.	-3.2%	-0.4	-15.3	.	0.5%
12	O=C(NCCCN1CCOCC1)c1ccc2c(=O)n(CCc3ccccc3)c(=O)[nH]c2c1	-6.8	-7.8	?	0.1	17.5	11.4%	-0.5%
13	COCCC(=O)NC1CCCc2c1cnn2-c1cccc(C)c1C (stereo not drawn)	3.6	-18.3	-0.6%	-0.5	18.6	22.3%	-1.5%
14	O=C1Nc2ccccc2C1=Nc1ccc(F)cc1	4.5	24.9	.	-0.2	34.8	19.7%	0.0%
15	COC(=O)c1ccc(-c2ccco2)n1Cc1cc(C)ccc1C	1.0	9.6	31.6µM*	0.3	-12.2	-26.3%	13.3%
16	COc1ccc(OC(C)C(=O)NC2CC(C)(C)NC(C)(C)C2)cc1 (stereo not drawn)	1.7	3.8	-2.5%	2.8	-14.8	9.6%	-1.2%
17	Cc1cnc(C(=O)Nc2ccc3c(c2)CCC3)cn1	2.8	-6.3	-4.2%	-0.8	-8.7	-1.2%	-0.9%
18	Cc1cccc(CNC(=O)c2ccc3c(c2)N(C)CCS3)c1	-4.6	12.5	4.3%&3.8%	-0.2&-0.3	-0.2&-6.4	8.8%	0.5%&0.2%
19	CC(C)C(=O)NC(Nc1cc(C(F)(F)F)ccc1Cl)C(Cl)(Cl)Cl (stereo not drawn)	-2.3	-0.6	0.0%	0.1	-7.2	7.2%	14.4%
20	Cc1ccc(N(CC(=O)Nc2cccc(Cl)c2C)S(C)(=O)=O)cc1	-2.1	-2.1	-2.5%	0.3	0.6	3.5%	3.3%
21	CCOC(=O)C1=C(C)NC(SCC(=O)Nc2cc(C)on2)=C(C#N)C1c1cccs1 (stereo not drawn)	-2.6	-0.2	-6.1%	3.8	46.1	-4.2%	.
22	Cc1ccc(C(=O)COC(=O)c2nc3nccc(C)n3n2)c(C)c1	.	0.7	-1.9%	0.0	22.7	.	5.9%
23	O=C(c1cc(-c2ccccc2)nn1-c1ccccc1)N1CCN(S(=O)(=O)c2cccc(F)c2)CC1	.	-14.1	1.2%	-0.6	2.1	.	5.3%
24	CCOC(=O)c1c(S(=O)(=O)N2CCN(c3ccc(C(C)=O)cc3)CC2)c(C)n(C)c1C	2.5	2.9	-10.8%	-0.5	20.6	10.0%	0.3%
25	CC(C)(C)C(=O)NC(=S)NCCc1ccccc1	3.6	-22.2	0.8%	1.6	-5.9	?	4.4%
26	Cc1ccccc1Nc1c(-c2c[nH]c3ccccc23)nc2ccccn12	.	.	4.1%	0.0	15.9	.	4.0%
27	NC(=O)c1sc2nc(-c3ccccc3)c3c(c2c1N)CCCC3	-0.6	-4.6	-12.8%	-0.3	-2.5	39.8µM*	0.9%
28	CCCCc1ccc(NC(=S)Nc2ccc(Nc3ccc(OC)cc3)cc2)cc1	-4.7	-22.6	-3.4%	-0.1	6.4	?	15.7%
29	CCOC(=O)C1CCCN(S(=O)(=O)c2cc3c4c(c2)CCC(=O)N4CCC3)C1 (stereo not drawn)	.	14.1	-0.8%	1.1	-11.6	.	1.0%
30	CCn1c(C)c(C(C)=O)c(N2CCN(c3ccc(OC)cc3)CC2)nc1=S	?	5.2	-1.0%	6.1	-9.4	22.4µM*	0.6%
31	CCn1cc(NC(=O)Nc2ccccc2C(=O)OC)c(C(N)=O)n1	2.6	2.5	-28.0%	-0.1	-10.9	20.4%	?
32	O=C(NCc1ccccc1)C1CCCN1S(=O)(=O)c1ccc(Cl)cc1 (stereo not drawn)	-6.8	-3.0	0.9%	0.0	-10.2	-2.3%	0.4%
33	c1ccc(CN=C2CCCc3ccccc3N2)cc1	.	.	0.6%	0.1	-16.3	.	1.8%
34	C[C@H](CO)N1C[C@H](C)[C@@H](CN(C)Cc2ccc(-c3ccccc3)cc2)Oc2c(NS(=O)(=O)c3cccs3)cccc2C1=O	.	.	1.5%	0.0	-14.5	.	0.1%
35	O=C(NC1=NCCS1)c1ccc(Cl)c(Cl)c1	0.1	4.0	.	0.3	19.3	0.7%	0.7%
36	Cc1[nH]nc2c1C(c1ccccc1F)CC(=O)N2 (stereo not drawn)	-0.3	-2.3	0.3%	-0.6	10.0	6.3%	-1.6%
37	O=C(COc1ccccc1)NC(Cc1c[nH]c2ccccc12)C(=O)O (stereo not drawn)	2.4	-4.3	-4.4%	-0.6	-13.4	-13.8%	-1.1%
38	COc1ccc(C2CC(c3cccs3)=NN2C(=O)CCC(=O)O)cc1OC (stereo not drawn)	-0.1	-3.9	.	-0.6	4.9	24.4%	2.0%
39	Cc1cccc(NC(=S)N2CCN(C(=O)c3ccco3)CC2)c1	.	7.3	1.4%	4.3	16.9	5.8%	1.2%
40	CC1Cc2ccccc2N1S(=O)(=O)c1cccc(C(=O)NCCCn2ccnc2)c1 (stereo not drawn)	0.3	-9.9	.	0.3	23.9	-12.5%	-1.1%
41	CC1(C(=O)NCc2ccco2)Cc2c(-c3ccccc3)ccnc2O1 (stereo not drawn)	.	.	-4.1%	-1.1	.	.	1.4%
42	CC(Sc1nnc(NC2CC2)s1)C(=O)Nc1ccc(N2CCOCC2)cc1 (stereo not drawn)	.	-12.5	0.9%	-0.6	-1.6	.	-0.9%
43	Cc1ccsc1C(=O)OCC(=O)Nc1nnc(-c2ccccc2)o1	.	6.4	-0.8%	1.7	3.8	.	0.4%
44	O=S(=O)(c1ccc(Br)cc1)c1nnn2c1nc(NCc1cccs1)c1sccc12	.	.	28.2µM*	-0.3	15.6	.	1.9%
45	CC(=O)N1CCC(C(=O)Nc2cc(S(=O)(=O)N3CCCCC3)ccc2C)CC1	.	.	-2.9%	-0.3	-18.7	.	0.4%
46	COc1ccc(C2=NOC(C(=O)Nc3ccc4c(c3)OCO4)C2)cc1OC (stereo not drawn)	-1.5	?	.	-0.7	-6.2	5.4%	0.3%
47	CC(/C=N/NC(=O)Cn1cnc2c1c(=O)n(C)c(=O)n2C)=C\c1ccccc1	8.3	4.3	1.1%	0.3	-25.6	7.3%	14.3%
48	Cc1ccc(C(=O)NCC(=O)OC(C)C(=O)NC2CCCc3ccccc32)cc1 (stereo not drawn)	.	7.1	1.1%	1.6	7.2	.	-0.8%
49	CCN(CC)CCOC(=O)c1ccc(NC(=O)c2cccc(C)c2[N+](=O)[O-])cc1	-0.6	-16.1	-1.7%	6.2	6.2	6.3%	-2.1%
50	Cn1c(=O)c2c(nc(N3CCCCCC3)n2CC(=O)c2ccccc2)n(C)c1=O	1.6	-6.9	1.4%	-1.3	-2.3	5.2%	2.1%
